Compound activity as filed in PubChem BioAssay.
Biofilm kill mix = clotrimazole potentiators killing C. albicans biofilm, primary screen, 4-compound mixtures | C. albicans biofilm persisters + clotrimazole, fluorescence viability; primary screen in compound mixtures of four per well | inhibition, % at 7.6 µM | 0.02% of 120,000 active | AID 1242, 2008;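 active means inhibition above 30.3% in the primary screen of four-compound pools, then above 30% when the compound was retested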;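 further: compounds exposed to preformed 24 h biofilms for 48 h; the number belongs to the whole pool; some results filed as inactive read as strong as hits; inactives centre near 12; 0% = biofilm with clotrimazole alone and 100% = kill control; retested singly at about 60 µM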
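Test system: C. albicans CAF4-2 wild-type biofilms; buffer or medium: RPMI/MOPS medium, pH 7.0; schedule: 24 h biofilm formation, then 48 h compound exposure, 37 °C; detection: Alamar Blue fluorescence; measure: percent inhibition of biofilm viability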
The depositor's hits bear a star. Some of the compounds tested; rates above refer to the full screens.

`COCCNc1nc(CSc2ccccc2)nc2sc(C)c(C)c12` gave Biofilm kill mix 16.
O=C(CN1CCCCC1)Nc1c2c(nc3ccccc13)N(c1ccccc1)CC2 was read as Biofilm kill mix -4.
`COC(=O)CC1C(=O)NC2CCCCC2N1C(=O)CCl` (configuration not stated) gave Biofilm kill mix 5.
O=C(c1ccccc1)N1CCSc2sccc2C1=O was read as Biofilm kill mix -2.
Screening O=C(CN(Cc1ccco1)C(=O)c1ccc(Cl)cc1)Nc1c(Cl)cc(Cl)cc1Cl returned Biofilm kill mix 2.
For O=C(COC(=O)CC(c1ccccc1)c1ccccc1)Nc1c(F)cccc1F the results were Biofilm kill mix 11.
Screening NS(=O)(=O)c1cccc(NC(=O)CN2CCCc3ccccc32)c1 returned Biofilm kill mix -3.
Screening Cc1cc(Cl)ccc1OCc1nc(-c2ccncc2)no1 returned Biofilm kill mix 7.
`Cc1ccc(-c2csc(NC(=O)c3cccc([N+](=O)[O-])c3C(=O)O)n2)cc1` gave Biofilm kill mix 7.
`O=S(=O)(c1ccc(Cl)c(NC(=S)Nc2cccc(O)c2)c1)N1CCOCC1` gave Biofilm kill mix 8.

Continued (5 carried over from the part before).
For O=C(COC(=O)CC(c1ccccc1)c1ccccc1)Nc1c(F)cccc1F the results were Biofilm kill mix 11.
Screening NS(=O)(=O)c1cccc(NC(=O)CN2CCCc3ccccc32)c1 returned Biofilm kill mix -3.
Screening Cc1cc(Cl)ccc1OCc1nc(-c2ccncc2)no1 returned Biofilm kill mix 7.
`Cc1ccc(-c2csc(NC(=O)c3cccc([N+](=O)[O-])c3C(=O)O)n2)cc1` gave Biofilm kill mix 7.
`O=S(=O)(c1ccc(Cl)c(NC(=S)Nc2cccc(O)c2)c1)N1CCOCC1` gave Biofilm kill mix 8.
Screening COc1ccc(C2SCCN2C(=S)Nc2ccc(Cl)cc2)cc1 (configuration not stated) returned Biofilm kill mix 13.
`Cc1csc(NC(=O)c2cccc(S(=O)(=O)N3CCN(C)CC3)c2)n1` gave Biofilm kill mix -6.
CC(CNC(=O)c1ccc(C(C)(C)C)cc1)CN(C)C (configuration not stated) was read as Biofilm kill mix 8.
COc1ccc(-c2cc(C(=O)Nc3cccc(S(=O)(=O)NCc4ccco4)c3)c3ccccc3n2)cc1OC was read as Biofilm kill mix -32.
For CCc1cc2cc(C)cc(C)c2[nH]c1=S the results were Biofilm kill mix 26.
Screening Cc1ccc(C)c(N=Cc2cc3c(cc2[N+](=O)[O-])OCO3)c1 returned Biofilm kill mix 3.
`O=C(/C=C/c1ccccc1)Nc1nc(-c2ccncc2)cs1` gave Biofilm kill mix 5.
Cc1ccc(Cc2c(C)c(C#N)c3[nH]c4ccccc4n3c2=O)cc1 was read as Biofilm kill mix 9.
O=C(O)c1c(Cl)nc2ccccn12 was read as Biofilm kill mix 15.
For CCCOC(=O)c1ccc(NC(=O)c2ccc(Br)o2)cc1 the results were Biofilm kill mix 4.
O=C(COc1nc2ccccc2nc1N1CCOCC1)NC1CCCCC1 was read as Biofilm kill mix 12.
Screening CC(C)[C@H](NC(=O)c1ccc(Cl)c([N+](=O)[O-])c1)C(=O)NCc1ccc(F)cc1 returned Biofilm kill mix 13.
`O=C(c1cccc(F)c1)N1CCCN(C(=O)c2cccc(F)c2)CC1` gave Biofilm kill mix 12.
Screening CCCNC(=S)Nc1ccc(F)cc1F returned Biofilm kill mix 14.
For Cc1cc2c(o1)CC(C)(C)CC2=O the results were Biofilm kill mix 11.
`Cc1cc(-c2cc(C(=O)NCc3ccccc3)on2)nc(S(C)(=O)=O)n1` gave Biofilm kill mix 16.
For CC(OC(=O)c1cc2sccc2n1C)C(=O)NC(C)(C)C (configuration not stated) the results were Biofilm kill mix 10.
Screening Cc1ccc(-n2c(C)n[nH]c2=S)cc1C returned Biofilm kill mix 14.
CCc1cc[n+](-c2nc3ccccc3nc2[N-]S(=O)(=O)c2ccc(Br)s2)cc1 was read as Biofilm kill mix 9.
`O=C(CCN1C(=O)S/C(=C/c2ccc(Cl)cc2)C1=O)N1CCOCC1` gave Biofilm kill mix 16.
Screening CC1CN(c2ccc(C(F)(F)F)cc2[N+](=O)[O-])CCN1S(C)(=O)=O (configuration not stated) returned Biofilm kill mix 15.
Cc1cc(C)n2nc(SCC(=O)N(Cc3ccccc3)C3CCS(=O)(=O)C3)nc2n1 (configuration not stated) was read as Biofilm kill mix 2.
`O=C(Nc1ccc(Cl)cc1C(=O)N1CCCC1)c1cccc([N+](=O)[O-])c1` gave Biofilm kill mix 11.
For COc1ccc(C2C3C(C)=NN=C3CC(C)(O)C2C(C)=O)cc1 (configuration not stated) the results were Biofilm kill mix 7.
For COc1ccc(C2C(C#N)=C(N)OC3=C2C(=O)CCC3)cc1Cn1cc([N+](=O)[O-])cn1 (configuration not stated) the results were Biofilm kill mix 10.
`Nc1ccccc1Nc1cccc(C(F)(F)F)c1` gave Biofilm kill mix 11.
For Cc1ccc(-n2c(=O)c(C#N)cc3c(=O)n4ccccc4nc32)cc1 the results were Biofilm kill mix 14.
For Cc1ccc(/C=C(\C#N)C(=O)NCc2ccco2)o1 the results were Biofilm kill mix 8.
COc1ccccc1NC(=O)Cn1c(CCC(=O)O)ccc1-c1ccc(C)cc1 was read as Biofilm kill mix 36.
`COc1ccc(-c2cc(C(F)F)n3ncc(C(=O)N4CCCc5ccccc54)c3n2)cc1` gave Biofilm kill mix 15.

Looked up by compound from above, 2 records:
`COc1ccc(-c2cc(C(F)F)n3ncc(C(=O)N4CCCc5ccccc54)c3n2)cc1` gave Biofilm kill mix 15.
For COc1ccc(C2C(C#N)=C(N)OC3=C2C(=O)CCC3)cc1Cn1cc([N+](=O)[O-])cn1 (configuration not stated) the results were Biofilm kill mix 10.

Following part
Screening Cc1cc(SC2CCOC2=O)nc2ccccc12 (configuration not stated) returned Biofilm kill mix 4.
Screening CCNC(=S)N1CCC(c2nc3cc(C)c(C)cc3[nH]2)CC1 returned Biofilm kill mix 17.
For O=C(NCc1cccnc1)c1cnc2n(c1=O)CCS2 the results were Biofilm kill mix -4.
`Cc1ccc2nsnc2c1NC(=S)NC(=O)c1ccco1` gave Biofilm kill mix 10.
`COC(=O)C(Cc1ccccc1)P(=O)(c1ccccc1)c1ccccc1` (configuration not stated) gave Biofilm kill mix 14.
Screening CC(C1CC2CCC1C2)n1c(-c2ccco2)n[nH]c1=S (configuration not stated) returned Biofilm kill mix -9.
CN(Cc1nc(-c2cnccn2)no1)Cc1cccc2ccccc12 was read as Biofilm kill mix 17.
Screening Cc1ccc(NC(=O)COC(=O)c2csc3c2CCC(C)C3)cc1S(=O)(=O)N1CCCCC1 (configuration not stated) returned Biofilm kill mix 12.
`CC(=O)Nc1ccc(S(=O)(=O)N(c2cccnc2)S(=O)(=O)c2ccc(NC(C)=O)cc2)cc1` gave Biofilm kill mix -3.
Screening COC(=O)c1cc(NS(=O)(=O)c2ccc(N3CCOCC3)c(NC(C)=O)c2)cc(C(=O)OC)c1 returned Biofilm kill mix 17.
For CN(C)NC1=CC(=[N+]2CCCC2)CC(C)(C)C1 the results were Biofilm kill mix 3.
`COc1ccc(-c2nnn(CC(=O)NCCc3ccc(OC)c(OC)c3)n2)cc1` gave Biofilm kill mix 16.
Cn1cc([C@@H]2C[C@H]3CN(Cc4cccc(Cl)c4)C(=O)[C@]34CCCN24)c(-c2ccccc2)n1 was read as Biofilm kill mix 5.
Screening CCN(CC)C(=O)CN1C(=O)/C(=C/c2ccccc2)SC1=S returned Biofilm kill mix 15.
COc1ccc2c(c1)c(=O)c(C(=O)c1ccccc1)cn2Cc1ccccc1 was read as Biofilm kill mix 9.
For C=CCNC(=S)NNc1nc(Nc2ccccc2)nc(N2CCCCC2)n1 the results were Biofilm kill mix 21.
Screening Cc1cccc(NC(=S)N=Nc2c(O)n(CN3CCOCC3)c3ccccc23)c1C returned Biofilm kill mix 4.
For CCOC(=O)C1CCCN(Cc2cccc(Cl)c2)C1 (configuration not stated) the results were Biofilm kill mix 15.
Screening CC(C)(C)NC(=O)NC(=O)COC(=O)c1c(F)cccc1Cl returned Biofilm kill mix 16.
Screening O=Cc1cccn1-c1cccnc1 returned Biofilm kill mix 5.
COc1ccc(-n2c(=S)[nH]c3c(sc(=S)n3-c3ccccc3)c2=O)c(OC)c1 was read as Biofilm kill mix 10.
`Cc1ccccc1NC(=O)c1ccccc1NC(=O)CCC(=O)O` gave Biofilm kill mix 3.
Screening CCOC(=O)C1=C(C)N(CCCC(=O)O)C(=O)NC1c1ccccc1OS(=O)(=O)c1ccc(C)cc1 (configuration not stated) returned Biofilm kill mix 6.
For CCCCOC(=O)c1nnc(-c2ccccc2)o1 the results were Biofilm kill mix 16.
`CCOCCCNS(=O)(=O)c1ccc(OC)c(Cl)c1Cl` gave Biofilm kill mix 14.
`NC(=O)Cn1nnc(-c2ccc(NC(=O)c3ccc(F)cc3)cc2)n1` gave Biofilm kill mix 17.
Screening C=CCn1ccc(=NC=C(C#N)C#N)c2ccccc21 returned Biofilm kill mix 13.
For COC(=O)[C@H](CC(C)C)NC(=O)CCc1nnc(COc2ccccc2)o1 the results were Biofilm kill mix 9.
For O=C(Cc1ccc(F)cc1)Nc1ccc(S(=O)(=O)N2CCCCC2)cc1 the results were Biofilm kill mix -29.
For Cc1c(Cc2ccccc2)sc(NC(=O)c2ccco2)c1C(N)=O the results were Biofilm kill mix 16.
For C/C(=N\NC(=O)c1ccc(-c2ccccc2)cc1)c1cccc(N)c1 the results were Biofilm kill mix 21.
NC(=O)COC(=O)c1cccc(NS(=O)(=O)/C=C/c2ccccc2)c1 was read as Biofilm kill mix 7.
Screening CN(C)S(=O)(=O)N(CC(=O)N1CCN(c2ccccc2)CC1)c1ccccc1 returned Biofilm kill mix 28.
For NC(=O)C[C@@H]1NC(=O)[C@H](CCC(=O)O)NC(=O)c2cc([N+](=O)[O-])cc(I)c2OCC[C@@H](C(N)=O)NC1=O the results were Biofilm kill mix 20.
For CCOC(=O)C(=CNNc1ccsc1C(=O)OC)C(=O)OCC the results were Biofilm kill mix 19.
CC(C)Cc1ccc(S(=O)(=O)Nc2ccccn2)cc1 was read as Biofilm kill mix 22.
Screening CCCCCCC(C)n1cc(C(C)=O)c(=O)n(C)c1=O (configuration not stated) returned Biofilm kill mix 14.
`Cc1cc(C(=O)NNC(=S)NCc2ccccc2)cs1` gave Biofilm kill mix 13.
CC(C)(C)C(=O)NC(=S)NNC(=O)c1ccc(Cl)cc1Cl was read as Biofilm kill mix 13.
Screening CCC1C/C(=C/c2cccs2)C(=O)/C(=C/c2cccs2)C1 (configuration not stated) returned Biofilm kill mix 8.

A portion of the results above:
For C/C(=N\NC(=O)c1ccc(-c2ccccc2)cc1)c1cccc(N)c1 the results were Biofilm kill mix 21.
NC(=O)COC(=O)c1cccc(NS(=O)(=O)/C=C/c2ccccc2)c1 was read as Biofilm kill mix 7.
Screening CN(C)S(=O)(=O)N(CC(=O)N1CCN(c2ccccc2)CC1)c1ccccc1 returned Biofilm kill mix 28.
For NC(=O)C[C@@H]1NC(=O)[C@H](CCC(=O)O)NC(=O)c2cc([N+](=O)[O-])cc(I)c2OCC[C@@H](C(N)=O)NC1=O the results were Biofilm kill mix 20.
For CCOC(=O)C(=CNNc1ccsc1C(=O)OC)C(=O)OCC the results were Biofilm kill mix 19.
CC(C)Cc1ccc(S(=O)(=O)Nc2ccccn2)cc1 was read as Biofilm kill mix 22.
Screening CCCCCCC(C)n1cc(C(C)=O)c(=O)n(C)c1=O (configuration not stated) returned Biofilm kill mix 14.

(list continues)
Screening COc1ccc2c(c1)c(CC(=O)O)c(C)n2C(=O)c1ccc(Cl)cc1 returned Biofilm kill mix 3.
`Cc1ccc(S(=O)(=O)N(C)c2ccccc2C(=O)NC2CCCC2)cc1` gave Biofilm kill mix 11.
`CCN1CCN(c2nc(Nc3ccccc3F)nc(N)c2[N+](=O)[O-])CC1` gave Biofilm kill mix 15.
`CC(=O)NC(Cc1cccc(C)c1)C(=O)NC1CCN(C(=O)c2ccc([N+](=O)[O-])cc2)CC1` (configuration not stated) gave Biofilm kill mix 15.
Screening COc1cc(/C=C/C(=O)O)ccc1OS(=O)(=O)c1ccc(C)cc1 returned Biofilm kill mix 3.
COC(=O)c1ccc(OC(=O)c2cccs2)cc1 was read as Biofilm kill mix 12.
c1ccc(-n2cc(CNCCc3cscn3)c(-c3ccc4c(c3)OCO4)n2)cc1 was read as Biofilm kill mix -1.
O=C(C1CCCO1)N1CCN(c2ccc(F)cc2)CC1 (configuration not stated) was read as Biofilm kill mix -12.
`C=CCCN(C(CC(C)C)C(=O)OC)S(=O)(=O)c1ccccc1Br` (configuration not stated) gave Biofilm kill mix 17.
Cc1nn(-c2ccc(Cl)c(Cl)c2)c(C)c1C(=O)O was read as Biofilm kill mix 9.
`COc1ccc(OC)c([N+](=O)[O-])c1C(N)=O` gave Biofilm kill mix -1.
For O=C(Cc1cn(Cc2cccc(Cl)c2)c2ccccc12)N1CCCC1 the results were Biofilm kill mix -3.
Screening Cc1cc(C(=O)N/N=C/C=C/c2ccccc2)n[nH]1 returned Biofilm kill mix 23.
Screening COCCCNC(=O)Cn1nnc(-c2ccc(NC(=O)c3cccnc3)cc2)n1 returned Biofilm kill mix 6.
For Cc1ccc(C)c2c1cc(C)c1nnc(SCC(=O)c3cccs3)n12 the results were Biofilm kill mix 13.
`C#CCOC(=O)C[N+](C)(C)CC#Cc1ccccc1` gave Biofilm kill mix 13.
`CC(C)[C@H](NC(N)=O)C(=O)Nc1ccc(OCc2ccccc2)cc1` gave Biofilm kill mix 12.
`CN1CCN(c2ccc(S(=O)(=O)N3CCCCC3)cc2NC(=O)Cc2ccccc2F)CC1` gave Biofilm kill mix 12.
`CNC(=S)N1CCn2cccc2C1c1cc(OC)c(OC)c(OC)c1` (configuration not stated) gave Biofilm kill mix 2.
COc1cccc(NC(=O)CSc2nc3c([nH]c4ccccc43)c(=O)n2C)c1 was read as Biofilm kill mix 17.
For C=CCNCCCCOc1ccccc1 the results were Biofilm kill mix 12.
